CDC25B-CDK2 inh: human CDC25B-CDK2/CyclinA binding inhibition; z-score (test concentration not listed); HTRF CDC25B-CDK2/CyclinA binding, anti-His/anti-Flag; hits give high values; P30305+P24941; 94,000 compounds, 0.72% hits;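 note: score is relative to mean and SD of negative controls; strong numbers were not always called active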
HIV TAR-Tat: HIV-1 TAR-Tat binding disruption; HIV-1 TAR RNA, Tat peptide displacement FRET; hits give high values; z-score (concentration not given with the values); 100,000 compounds, 0.6% hits;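 note: score is relative to mean and SD of negative controls; some compounds called inactive have numbers as strong as hits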
Active calls of the source: *; . = not tested or not shown.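 Rule for the calls: active = z-score from 3 up in half or more of its runs; inactive = the rest.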

SMILES | CDC25B-CDK2 inh | HIV TAR-Tat
C=CCc1cccc2cc(C(=O)Nc3ccc(OC)c(OC)c3)c(=O)oc12 | -2.9 | .
Cc1c(Cl)cccc1-c1ccc(CNCCSc2nnnn2C)o1 | -1.3 | -1.2
CN1C(=O)c2ccccc2Sc2ccc(NC(=O)NCCN3CCOCC3)cc21 | -0.91 | -1
CCCCC(CC)CN1CC(O)=C(c2nc3ccc(C)cc3[nH]2)C1=N (stereo unspecified) | -1.3 | 2.1
Cc1cc(-c2ccc(C)c(S(=O)(=O)NCCc3ccco3)c2)on1 | . | 0.83
Fc1ccc(OCc2nc3ccc(F)cc3[nH]2)cc1 | 0.09 | 1.9
Cc1ccc(-c2csc3ncnc(NCCN4CCOCC4)c23)cc1 | 0.74 | -0.95
O=C1C(/C=N/c2[nH]ncc2-c2ccccc2)=C(O)c2ccccc21 | -2.3 | .
CNc1nsc(C(=O)c2ccc(Cl)cc2)c1N | -0.03 | 0.55
Clc1ccc(OCc2nn3c(Cn4nnc5ccccc54)nnc3s2)cc1 | 1.3 | 1.3
Cc1ccc(C)c(Cn2c3ccccc3c3cnn(CC(=O)O)c(=O)c32)c1 | 1.4 | 0.67
O=C(Nc1nc2c(s1)CCCC2)c1c(-c2ccccc2)c(-c2ccccc2)n[nH]c1=O | -1.1 | -0.49
CCc1c(C)sc(NC(=O)COCc2cc(-c3ccco3)on2)c1C#N | . | 1.4
O=S(=O)(Nc1ccccc1F)c1ccc2[nH]c3c(c2c1)CCCCC3 | . | 1.1
COc1ccc(Cc2nc(C)cc(Cl)n2)cc1Br | -1.5 | -0.16
N=C(N)SCCN | -1.2 | .
COC(=O)c1sc2cccc(F)c2c1S(=O)(=O)N1CCN(c2ccc(F)cc2)CC1 | . | -0.17
CCn1c2ccccc2c2cc(NC(=O)C(=O)NCC3CCCO3)ccc21 (stereo unspecified) | -1.5 | -0.7
CCOC(=O)c1c(O)c2ccccc2[nH]c1=O | 0.86 | 0.78
Cc1ccccc1-c1nc2ccc3ccccc3c2c2c1C(=O)c1ccccc1-2 | -1.7 | .
O=C(C1CCN(c2nnc(-n3cccc3)s2)CC1)N1CCCCC1 | -0.42 | -0.14
CCCCCC(=O)N(c1ccc(OCC)cc1)S(=O)(=O)c1ccc2c(c1)oc(=O)n2C | -0.05 | -0.5
CC1(C(=O)NC2CCCC2)Cn2c(ccc2-c2ccco2)C(=O)N1c1ccc2c(c1)OCO2 (stereo unspecified) | . | -7
O=C(O)c1cc(-c2ccc(F)cc2)nc2n[nH]c(-c3ccc(Br)cc3)c12 | . | 3.8
CCOC(=O)c1nc(NCCN2CCCC2)c2oc3ccccc3c2n1 | . | 2.3

Part of the list above, as a markdown table:
| canonical_smiles | CDC25B-CDK2 inh | HIV TAR-Tat |
| --- | --- | --- |
| C=CCc1cccc2cc(C(=O)Nc3ccc(OC)c(OC)c3)c(=O)oc12 | -2.9 | . |
| Cc1c(Cl)cccc1-c1ccc(CNCCSc2nnnn2C)o1 | -1.3 | -1.2 |
| CN1C(=O)c2ccccc2Sc2ccc(NC(=O)NCCN3CCOCC3)cc21 | -0.91 | -1 |
| CCCCC(CC)CN1CC(O)=C(c2nc3ccc(C)cc3[nH]2)C1=N (stereo unspecified) | -1.3 | 2.1 |
| Cc1cc(-c2ccc(C)c(S(=O)(=O)NCCc3ccco3)c2)on1 | . | 0.83 |
| Fc1ccc(OCc2nc3ccc(F)cc3[nH]2)cc1 | 0.09 | 1.9 |
| Cc1ccc(-c2csc3ncnc(NCCN4CCOCC4)c23)cc1 | 0.74 | -0.95 |
| O=C1C(/C=N/c2[nH]ncc2-c2ccccc2)=C(O)c2ccccc21 | -2.3 | . |
| CNc1nsc(C(=O)c2ccc(Cl)cc2)c1N | -0.03 | 0.55 |
| Clc1ccc(OCc2nn3c(Cn4nnc5ccccc54)nnc3s2)cc1 | 1.3 | 1.3 |
| Cc1ccc(C)c(Cn2c3ccccc3c3cnn(CC(=O)O)c(=O)c32)c1 | 1.4 | 0.67 |
| O=C(Nc1nc2c(s1)CCCC2)c1c(-c2ccccc2)c(-c2ccccc2)n[nH]c1=O | -1.1 | -0.49 |
| CCc1c(C)sc(NC(=O)COCc2cc(-c3ccco3)on2)c1C#N | . | 1.4 |
| O=S(=O)(Nc1ccccc1F)c1ccc2[nH]c3c(c2c1)CCCCC3 | . | 1.1 |
| COc1ccc(Cc2nc(C)cc(Cl)n2)cc1Br | -1.5 | -0.16 |
| N=C(N)SCCN | -1.2 | . |
| COC(=O)c1sc2cccc(F)c2c1S(=O)(=O)N1CCN(c2ccc(F)cc2)CC1 | . | -0.17 |
| CCn1c2ccccc2c2cc(NC(=O)C(=O)NCC3CCCO3)ccc21 (stereo unspecified) | -1.5 | -0.7 |
| CCOC(=O)c1c(O)c2ccccc2[nH]c1=O | 0.86 | 0.78 |
| Cc1ccccc1-c1nc2ccc3ccccc3c2c2c1C(=O)c1ccccc1-2 | -1.7 | . |
| O=C(C1CCN(c2nnc(-n3cccc3)s2)CC1)N1CCCCC1 | -0.42 | -0.14 |
| CCCCCC(=O)N(c1ccc(OCC)cc1)S(=O)(=O)c1ccc2c(c1)oc(=O)n2C | -0.05 | -0.5 |
| CC1(C(=O)NC2CCCC2)Cn2c(ccc2-c2ccco2)C(=O)N1c1ccc2c(c1)OCO2 (stereo unspecified) | . | -7 |
| O=C(O)c1cc(-c2ccc(F)cc2)nc2n[nH]c(-c3ccc(Br)cc3)c12 | . | 3.8 |

Remaining list, next part.
SMILES | CDC25B-CDK2 inh | HIV TAR-Tat
COCCCNC(=O)C12CC3CC(CC(C3)C1)C2 | -1.8 | .
CSc1nc(C)cc(Nc2ccc(Cl)cc2)n1 | -0.36 | 0.34
COc1ccc(C(=O)O)cc1CN1CC(=O)N2CCCC2C1=O (stereo unspecified) | -0.09 | 0.43
Cn1ncc2c(-n3ncc(C(=O)NNC(=O)c4ccco4)c3C(F)(F)F)ncnc21 | -1.3 | .
COc1ccc(-c2[nH]nc3c2C(c2ccoc2)C(C#N)=C(N)O3)cc1 (stereo unspecified) | . | -1.1
CCC(=O)Nc1ccc2nc(SCc3cc(=O)n4nc(CC)sc4n3)sc2c1 | . | 0.25
O=C(Cn1ccc(C(F)(F)F)n1)Nc1cccc(C(F)(F)F)c1 | -1.6 | .
Cc1[nH]c(C)c(S(=O)(=O)N2CCc3ccccc3C2)c1C(=O)N1CCCC1 | . | 0.58
Fc1cccc(N=Cc2ccc(Cl)c(Cl)c2)c1 | -0.62 | .
CCC(=O)NC(C)Cc1c[nH]c2ccccc12 (stereo unspecified) | 0.24 | 0.62
O=C(NCc1cccs1)c1cc2n(n1)C(C(F)(F)F)CC(c1cccs1)N2 (stereo unspecified) | -1.4 | .
CCOc1ccc(N2C(=O)N(c3ccccc3OC)C3CS(=O)(=O)CC32)cc1 (stereo unspecified) | -1 | -0.13
Cc1ccc2c(c1)c1c(n2CC(O)CNCC2CCCO2)CCCC1 (stereo unspecified) | -0.89 | .
COc1cccc2c1c(NC(=O)c1snnc1C)nn2C | 1 | .
O=S(=O)(NCCN1CCCC1)c1cc2ccccc2s1 | -1.6 | .
CSc1nc2c(c(Nc3ccc(S(N)(=O)=O)cc3)n1)CCC2 | -0.03 | 0.51
CC(C)Sc1c(Cl)cccc1NC(=O)Nc1cccc([N+](=O)[O-])c1 | -0.34 | .
CCc1nn(CC(=O)NCCCN2CCC(N3CCCCC3)CC2)c(=O)c2cc3sccc3n12 | 8.2 | -0.32
CC(C)CCNC(=O)c1cc2oc3ccccc3c2n1C | -2.6 | 2.8
C=CCOc1ccc(C2N3CC4(C(C)C)CN2CC(C(C)C)(C3)C4=O)cc1 (stereo unspecified) | -0.07 | -0.14
O=C1CCCC2=C1C(c1cccs1)N(C(=O)NCC1CCCO1)c1ccccc1N2 (stereo unspecified) | . | 1.1
CCCc1[nH]nc2c1C(c1cccc(O)c1)C(C#N)=C(N)O2 (stereo unspecified) | -1.2 | 1.9
Cc1onc(-c2ccccc2)c1CSc1n[nH]c(=O)n1Cc1ccco1 | -0.22 | .
COC(=O)c1ccc(Cn2c(=O)c3cccn3c3cccnc32)o1 | 1 | 0.16
Cc1ccccc1-c1nc(SCC(=O)NC(C)(C)C)n2[nH]c(=O)cc2n1 | . | -1.3

Other records.
SMILES | CDC25B-CDK2 inh | HIV TAR-Tat
O=C(NC1CCCCC1)c1cn(-c2ccccc2)cn1 | . | 0.56
CC1=C(C(=O)OC(C)C)C(c2ccc(C(C)C)cc2)N2C(=O)CCSC2=N1 (stereo unspecified) | -1.2 | .
CC(C)c1ccc(C2c3c(-c4ccccc4O)n[nH]c3C(=O)N2CCCO)cc1 (stereo unspecified) | -0.02 | 1.6
Cc1cc(N2C(=O)CCC2=O)n(C)n1 | -1.1 | .
O=C1CCSc2ccc(S(=O)(=O)NCCN3CCOCC3)cc2N1 | . | 2.1
O=C(NCCN1CCOCC1)c1ccc(-n2cccn2)cc1 | -0.89 | .
CCCCC(=O)Nc1nnc(SCc2cc(=O)n3nc(C(C)C)sc3n2)s1 | . | -0.04
CCC1CCC2(CC1)NC(CO)(CO)CO2 (stereo unspecified) | -0.86 | .
COCCNc1nc2c(S(=O)(=O)c3ccc(C(C)C)cc3)nnn2c2ccccc12 | -3.2 | 0.97
CSc1nc(/N=C/N(C)C)n2nc(-c3ccccc3)cc2n1 | -2 | .
COC(=O)C(C(C)=O)C(=O)c1ccccc1[N+](=O)[O-] (stereo unspecified) | 0.04 | .
Cn1c(COc2cccc3cccnc23)nnc1SCC(=O)c1ccccc1 | . | 1.3
CCOc1ccc(NS(=O)(=O)c2ccc3c(c2)C(C)(C)C(=O)N3C)cc1 | . | 1.4
CC1NC(C)(C)Cc2c1ccc1ccccc21 (stereo unspecified) | -0.78 | .
CN(C)CCNc1cc(N2CCCCC2)c2noc3c2c1C(=O)c1ccccc1-3 | 6.2* | 17*
CC1Cc2ccccc2N1C(=O)CSc1nc(-c2ccccc2F)nc2cc(=O)[nH]n12 (stereo unspecified) | . | 0.31
O=C(CN1CCN(Cc2ccc(F)cc2Cl)S1(=O)=O)NCc1ccco1 | . | 0.27
CCC1CCCCN1Cc1nc2c(c(=O)n(C)c(=O)n2C)n1CC (stereo unspecified) | -1.1 | 1.4
COc1ccc(Cl)cc1Nc1nnc2n1CCCCC2 | -1.1 | -0.19
COC(=O)c1c[nH]c2nc(C)ccc2c1=O | . | 1.2
Cc1cc(C)cc(OCCOc2cccc(/C=C3\SC(=O)NC3=O)c2)c1 | 0.54 | .
Cc1ccc(S(=O)(=O)c2nc(S(=O)(=O)c3ccccc3)sc2NCc2ccco2)cc1 | -1.6 | -1.1
O=c1ccc(-c2ccc(S(=O)(=O)Nc3ccc(F)cc3Cl)o2)n[nH]1 | . | -0.75

Rewritten as comma-separated lines: two of the compounds above.
smiles,CDC25B-CDK2 inh,HIV TAR-Tat
O=C(CN1CCN(Cc2ccc(F)cc2Cl)S1(=O)=O)NCc1ccco1,.,0.27
CCC1CCCCN1Cc1nc2c(c(=O)n(C)c(=O)n2C)n1CC (stereo unspecified),-1.1,1.4

Source: PubChem
